VDR inhibitor: vitamin D3 receptor (human) inhibition | 0.93% of 400,000 active | P11473 | AID 504847 | Potency, µM, inactives show max response, negative = inhibition, most hits filed as inhibitors | VDR-SRC2-3 peptide fluorescence polarization, 2 h; active = well fitted inhibition curve with a large enough effect; inconclusive = small, poorly fitted or top-dose-only effect, or another doubt; inactive = no such curve, though single readings can be large or run the other way; note: series mostly up to about 120 µM
Target sequence (P11473 whole entry, looked up): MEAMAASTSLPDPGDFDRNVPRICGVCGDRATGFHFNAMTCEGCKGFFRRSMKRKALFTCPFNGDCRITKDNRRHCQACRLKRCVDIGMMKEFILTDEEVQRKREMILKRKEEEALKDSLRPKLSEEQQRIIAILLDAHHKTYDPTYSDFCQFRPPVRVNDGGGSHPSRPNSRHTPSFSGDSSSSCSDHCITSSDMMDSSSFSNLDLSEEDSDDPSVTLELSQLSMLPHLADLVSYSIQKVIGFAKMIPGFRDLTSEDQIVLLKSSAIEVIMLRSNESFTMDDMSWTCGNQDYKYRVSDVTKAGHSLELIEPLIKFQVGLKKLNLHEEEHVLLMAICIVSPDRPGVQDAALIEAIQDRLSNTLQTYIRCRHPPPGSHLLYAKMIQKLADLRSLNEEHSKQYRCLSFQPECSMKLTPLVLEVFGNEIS
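Compounds are added to VDR with labelled SRC2-3 coactivator peptide and held 2 h at room temperature. Inhibition of the VDR–peptide interaction is then read as a change in fluorescence polarization.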
Active calls of the source: *; u = inconclusive; & = joins results of further samples. % is set by controls: 0 for no effect and ±100 for the full control effect; potency is the fitted concentration of half-maximal effect. This is a subset; the hit share may differ from the screen's.

VDR inhibitor	Structure
-4%	CC(C)C(NS(=O)(=O)c1cccc2nsnc12)C(=O)NC1CCCCC1 (stereo unspecified)
-6%	O=C(COc1ccccc1C(=O)O)Nc1nc2ccc([N+](=O)[O-])cc2s1
-6%	COc1ccccc1C(=O)NC(=O)COC(=O)c1cccc(C)c1O
4%	CCc1ccc(NC(=O)Cn2c(=O)n(Cc3ccc4c(c3)OCO4)c(=O)c3oc4ccccc4c32)cc1
9%	COCC(O)CSc1c([N+](=O)[O-])nc(C)n1Cc1ccc(OC)c([N+](=O)[O-])c1 (stereo unspecified)
-3%	CCN1CCCC1CNC(=O)c1cn(C)c2ccc(S(=O)(=O)N3CCCCCC3)cc2c1=O (stereo unspecified)
-18%	Cc1cc(C)c(NC(=O)Cn2nnc(C(=O)NCCc3ccccc3)c2N)c(C)c1
6%&1%	COCCCNC(=O)Cn1cnc2sc(C)c(S(=O)(=O)N3CCN(c4ccccc4OC)CC3)c2c1=O
-6%	COc1cc2c(cc1OC)C(NNC(=O)c1ccc(Br)o1)=NC(C)(C)C2
3%	CCOc1ccc(CC(=O)NNC(=S)NC2CCCCC2)cc1OCC
-4%	O=C(NC1CC2CCCC(C1)N2S(=O)(=O)c1ccccc1)c1ccco1 (stereo unspecified)
9%	COc1cc(C(=O)NCCN2CCN(C(=O)c3cc(OC)c(OC)c(OC)c3)CC2)cc(OC)c1OC

VDR inhibitor	Structure
-16%	Cc1nnc(SCC(=O)Nc2ccc(OC(F)F)c(Cl)c2)n(N)c1=O
5%	CC1(C)Cc2c(cnn2-c2ccc(F)cc2)C(NC(=O)CCCN2CCCCC2=O)C1 (stereo unspecified)
-21%	Cc1ccc(/C=N/n2c(C)nnc2C)s1
1%	Cc1ccc(NC(=O)C2CCCN2S(=O)(=O)c2ccc(-c3ccc(=O)[nH]n3)s2)c(C)c1 (stereo unspecified)
-7%	CCn1nc(C(=O)NNC(=O)c2ccc(OC(F)F)cc2)c2ccccc2c1=O
5%	C=CCNC(=O)COc1ccccc1C#N
-10%	O=C(COc1ccc([N+](=O)[O-])cc1)Nc1ccncc1
-13%	CCOc1ccc(N(CC(=O)Nc2ccc3c(c2)OCCO3)S(=O)(=O)c2c(C)noc2C)cc1
1%	O=C(Nc1cc(Br)ccc1O)C1CC(c2ccccc2Cl)=NO1 (stereo unspecified)
9%	COc1cccc(Nc2ncnc3sccc23)c1
-3%	CCCNC(=O)c1cc(S(=O)(=O)N2CCc3ccccc32)ccc1F
-5%	CCC(c1nnnn1CS(=O)(=O)c1ccc(C)cc1)N1CCN(c2nc3ccccc3s2)CC1 (stereo unspecified)

13 structures out of the list, ordered by count of non-hydrogen atoms, descending:
VDR inhibitor	Structure
9%	COc1cc(C(=O)NCCN2CCN(C(=O)c3cc(OC)c(OC)c(OC)c3)CC2)cc(OC)c1OC
-5%	CCC(c1nnnn1CS(=O)(=O)c1ccc(C)cc1)N1CCN(c2nc3ccccc3s2)CC1 (stereo unspecified)
-3%	CCN1CCCC1CNC(=O)c1cn(C)c2ccc(S(=O)(=O)N3CCCCCC3)cc2c1=O (stereo unspecified)
5%	CC1(C)Cc2c(cnn2-c2ccc(F)cc2)C(NC(=O)CCCN2CCCCC2=O)C1 (stereo unspecified)
-18%	Cc1cc(C)c(NC(=O)Cn2nnc(C(=O)NCCc3ccccc3)c2N)c(C)c1
-7%	CCn1nc(C(=O)NNC(=O)c2ccc(OC(F)F)cc2)c2ccccc2c1=O
3%	CCOc1ccc(CC(=O)NNC(=S)NC2CCCCC2)cc1OCC
-3%	CCCNC(=O)c1cc(S(=O)(=O)N2CCc3ccccc32)ccc1F
1%	O=C(Nc1cc(Br)ccc1O)C1CC(c2ccccc2Cl)=NO1 (stereo unspecified)
-10%	O=C(COc1ccc([N+](=O)[O-])cc1)Nc1ccncc1
9%	COc1cccc(Nc2ncnc3sccc23)c1
5%	C=CCNC(=O)COc1ccccc1C#N
-21%	Cc1ccc(/C=N/n2c(C)nnc2C)s1

The list goes on:
VDR inhibitor	Structure
-19%	COc1ccc(-c2nc3ccccc3n3c(-c4ccccc4)c4c(=O)n(C)c(=O)n(C)c4c23)cc1
7%	Cc1[nH]n(-c2ccccc2)c(=O)c1-c1cccc(Cl)c1
11%	Cc1cccc(Oc2nc(CN3CCOCC3)nc3sc4c(c23)CCCC4)c1
u	O=C(N/N=C/c1cccc2ccccc12)c1n[nH]c2c1CCCC2
-4%	Cc1ccc(NC(=O)Nc2ccc(C(=O)N3CCOCC3)cc2)cc1
16%	Cc1cc(N2C(=O)CC(N3CCN(C(c4ccccc4)c4ccccc4)CC3)C2=O)no1 (stereo unspecified)
-1%	CC(C)CC(=O)Nc1c2c(nn1-c1cccc(Cl)c1)CS(=O)(=O)C2
-14%	CCC1Oc2ccc(C)cc2N(CC(=O)NCc2ccco2)C1=O (stereo unspecified)
-10%	O=C(Nc1ccccn1)c1ccc2c(c1)S(=O)(=O)c1ccccc1C2=O
7%	NC(=O)CN1CCOCCOCCN(CC(N)=O)CCOCCOCC1
1%	O=C(Cc1ccccc1)NS(=O)(=O)c1ccc(N=NN2CCOCC2)cc1
5%	CCOC(=O)/C(C#N)=C1/C=Cc2ccccc2N1CC

VDR inhibitor	Structure
13%	NC(=O)C1CCN(c2ccc(S(=O)(=O)N3CCCCC3)cn2)CC1
-6%	CC1CCCN(C(=O)C2CCN(S(=O)(=O)c3cccc4cccnc34)CC2)C1 (stereo unspecified)
u	CCN(CC)C(=O)C(=O)c1cc(C)n(-c2ccc(F)cc2)c1C
1%	CCOC(=O)N1CCC(NC(=O)C(CC(C)C)NC(=O)C2CCCCC2)CC1 (stereo unspecified)
14%	CCOC(=O)C1=C(c2ccc(O)cc2)NC(=O)NC1C (stereo unspecified)
-25%	Cc1c(Cl)cccc1NC(=O)N1CCN(C(=O)c2ccco2)CC1
13%	COc1cccc(NS(=O)(=O)c2ccc3c(c2)NC(=O)CC(=O)N3)c1
12%	O=C(OCc1ccc2c(c1)OCO2)c1cccc(S(=O)(=O)N2CCCCC2)c1
-4%	CCCNC(=O)COc1coc(CN2CCN(C(=O)c3ccco3)CC2)cc1=O
-13%	CS(=O)(=O)c1ccc(Cl)c(NC(=O)CSc2nncn2-c2ccccc2)c1
6%	O=C1OCC(CC2=C(O)C(=O)OC2)=C1O
-7%	COc1ccc(CCN2C(=O)CC(N3CCN(c4ccccn4)CC3)C2=O)cc1OC (stereo unspecified)

VDR inhibitor	Structure
2%	CC(Sc1nncn1C)C(=O)Nc1cc(C(F)(F)F)ccc1N1CCOCC1 (stereo unspecified)
-8%&3%	CN(C)S(=O)(=O)n1cc(/C=C(\NC(=O)c2ccccc2F)C(=O)NCCCn2ccnc2)c2ccccc21
-19%	COc1ccc(C(=O)N=c2sc3c(C)ccc(OC)c3n2C)cc1
13%	CC(C)(C)c1ccc(C(=O)NCC(c2ccco2)S(=O)(=O)c2ccc(F)cc2)cc1 (stereo unspecified)
19%	CC1NC(C)(C)Cc2c1ccc1ccccc21 (stereo unspecified)
4%	COc1ccc(C(=O)Nc2ccc(C(F)(F)F)n(C)c2=O)cc1
4%	C=CCC[C@H](Cc1ccc(F)cc1)C(=O)OC[C@H](Cc1c[nH]c2ccccc12)NC(=O)[C@H](CC=C)CC(=O)N[C@H](CO)Cc1ccccc1
2%	CCOc1ccc(C(=O)Nc2cc(C)c3c(=O)oc4ccccc4c3n2)cc1
-9%	O=C(/C=N/O)Nc1ccc(F)cc1
23%	c1cn(C23CC4CC(CC(C4)C2)C3)cn1
u	COc1ccc(OC)c(C(c2c(O)nc(SC)[nH]c2=O)c2c(O)nc(SC)[nH]c2=O)c1
-3%	O=C(C[n+]1cc(-c2ccccc2)n2c1CCC2)Nc1nc(-c2ccccc2)cs1

VDR inhibitor	Structure
13%	Clc1cccc(Cl)c1C1Nc2cccc3cccc(c23)N1
-15%	CCN(CC)C(=O)[C@H]1C[C@H](CC(=O)NCCC2=CCCCC2)C(=O)N2CCc3c([nH]c4ccc(Cl)cc34)[C@]12C
-5%	Cc1ccc2c(c1)N(Cc1cccc(Cl)c1)C(=O)c1cccnc1O2
-23%	CCn1c2ccc(C)cc2c2nnc(SCCN3CCCCC3)nc21
-18%	NC(=S)NC1CC2C=CC1C2 (stereo unspecified)
3%	COc1cc(C2/C(=C(/O)c3ccc(OCC(C)C)cc3)C(=O)C(=O)N2CCN(C)C)ccc1O (stereo unspecified)
50µM*	c1cncc(CNc2ncncc2-c2ccoc2)c1
14%	COc1cc(OC)c(N2CC(C(=O)Nc3cccc(C(=O)NC4CC4)c3)CC2=O)cc1Cl (stereo unspecified)
6%	O=C(Nc1ccc(N2CCCCC2)c(Cl)c1)c1cccnc1
0%	COC(=O)c1ccc(C2c3c(oc4ccc(F)cc4c3=O)C(=O)N2CCO)cc1 (stereo unspecified)
-19%	CCN(CC)S(=O)(=O)c1ccc(Cl)c(NC(=O)c2ccccc2C)c1
-12%	C#CCn1c(=O)c2c(nc(/C=C/c3cccc(OC)c3)n2C)n(CCCOP(=O)(O)O)c1=O

Sorted by value in VDR inhibitor (high to low): some entries from above
SMILES,VDR inhibitor
CCN(CC)C(=O)[C@H]1C[C@H](CC(=O)NCCC2=CCCCC2)C(=O)N2CCc3c([nH]c4ccc(Cl)cc34)[C@]12C,-15%
CCN(CC)S(=O)(=O)c1ccc(Cl)c(NC(=O)c2ccccc2C)c1,-19%
CCn1c2ccc(C)cc2c2nnc(SCCN3CCCCC3)nc21,-23%

(cont.)
VDR inhibitor	Structure
-15%	COc1ccc(F)c(CN2CCC(n3nccc3NC(=O)CCCc3ccccc3)CC2)c1
-3%	CC(=O)c1cccc(CN2CCc3ccc(NC(=O)C4CCCO4)cc3C2)c1 (stereo unspecified)
19%	O=C(COC(=O)c1cc[n+]([O-])cc1)Nc1cc([N+](=O)[O-])ccc1Cl
-2%	CC(C)c1onc(C(=O)NCc2ccc(F)cc2)c1[N+](=O)[O-]
11%	CC(=O)N1CC2(CC(=O)OC(C)C)CN(C(C)=O)CC(CC(=O)OC(C)C)(C1)C2=O
6%	O=C(NCCc1ccccc1)C1CCN(Cc2ccccc2F)CC1
7%	COc1ccc(/C(C)=N/NC(=O)CNC(=O)C2COc3ccccc3O2)c(OC)c1 (stereo unspecified)
-15%	Cc1ccc([N+](=O)[O-])cc1N=Nc1c(-c2ccc([N+](=O)[O-])cc2)[nH]n(C(N)=S)c1=O
8%	CC(C)c1ccc(S(=O)(=O)Nc2ccc3oc4c(c3c2)C(=O)CC(C)(C)C4)cc1
-7%	C=CCOC(=O)N[C@@H](c1ccccc1)[C@@H](C)[N+](=O)[O-]
4%	CCc1nc(SCc2cccnc2)c2c(=O)n(C)c(=O)n(C)c2n1
-4%	CCOc1ccc2nc(SC(C)C(N)=O)[nH]c2c1 (stereo unspecified)

VDR inhibitor	Structure
-18%	CCSc1ncc(C)cc1[N+](=O)[O-]
7%	Cc1ccc2cccc(OCC(=O)NCc3ccco3)c2n1
-18%	N/C(Cc1nc(-c2ccc(F)cc2)cs1)=N\O
-7%	CCOC(=O)c1cnc2c(C(F)(F)F)cccc2c1NCCCN1CCOCC1
5%	FC(F)(F)c1ccc(-c2noc(-c3ccccc3)c2I)cc1
7%	c1ccc(-c2csc(-c3ccc(-c4csnn4)cc3)n2)cc1
-22%	CCOC(=O)c1c(C)[nH]c(C(=O)/C(C#N)=C/c2ccc(OC)c(OC)c2)c1C
11%	COc1ccc(C2c3c(-c4c(C)cc(C)cc4O)n[nH]c3C(=O)N2Cc2ccco2)cc1 (stereo unspecified)
1%	COc1cc(C2/C(=C(\O)c3ccc4c(c3)CC(C)O4)C(=O)C(=O)N2CCCn2ccnc2)cc(OC)c1OC (stereo unspecified)
-15%	CC(C)(C)NC(=O)/C=C/c1cccc(C(F)(F)F)c1
-4%	Cn1c(SCc2ccccc2)nnc1-c1ccc2c(c1)OCO2
-10%	COc1ccc(-c2cc(C(=O)NCc3ccc(C)cc3)c3cc(C(C)C)ccc3n2)cc1

VDR inhibitor	Structure
8%	CC1CN(C(=O)c2cccc(COc3ccc(Br)cc3)c2)CC(C)O1 (stereo unspecified)
-9%	O=C(CSc1nnc(-c2ccccc2)n1Cc1ccco1)Nc1ccc(S(=O)(=O)N2CCCC2)cc1
4%	COC(=O)N1CCC2(CCCN(c3ncccn3)C2)CC1
-6%&8%	COC1C(O)C(O)C(O)C(O)C1O (stereo unspecified)
-3%	O=C(N/N=C/C=C\c1ccccc1[N+](=O)[O-])c1ccco1
4%	CCOC(=O)[C@H]1[C@H]2COc3ccc(C)cc3[C@@H]2N2C(=O)c3cc(Cl)ccc3NC(=O)[C@@]12C
-1%	CC[C@H](C)[C@H](NC(=O)[C@@H](NC(=O)[C@@H](CC(=O)NO)Cc1ccccc1)[C@@H](C)CC)C(=O)O
-13%	CCOC(=O)NN1C(=O)c2ccccc2NC1c1ccc(OC)c(OC)c1 (stereo unspecified)
-13%	CCc1cc2c(NCCC(=O)O)ncnc2s1
-1%	Cc1cccc(C)c1NC(=O)c1ccc2nc(CCc3ccccc3)oc2c1
-8%	CCOC(=O)CC(NC(=O)Cc1cccs1)c1ccccc1Cl (stereo unspecified)
-13%	Cc1ccc(Nc2cc(C(=O)NC3CCCC3)c3ccccc3n2)c(C)c1

VDR inhibitor	Structure
-15%	O=S1(=O)CCOC[C@H](Cc2ccccc2)N1Cc1cccc(Cl)c1
-11%	CC(=O)Nc1ccc(S(=O)(=O)N2CCSC2c2ccc(C)cc2)cc1 (stereo unspecified)
-11%	COC(=O)c1[nH]c2cccc(C)c2c1NC(=O)CN1CCN(c2ccccc2OC)CC1
28µM*	CCNc1ccc(Br)cc(C(=O)/C=C/c2ccccc2Cl)c1=O
-13%	O=C(Cc1c[nH]c2ccccc12)N/N=C/c1ccc(F)cc1
-11%	CC1CCCN(C(=O)COC(=O)CNC(=O)c2ccc(Br)cc2)C1 (stereo unspecified)
8%	CCn1c2ccccc2c2cc(NC(=O)C(=O)NCC3CCCO3)ccc21 (stereo unspecified)
u	COc1ccc(SC[C@H](C)CN2CC[C@H](C(C)(C)C)CCC2=O)cc1
9%	O=C(C1CCN(c2nnc(-n3cccc3)s2)CC1)N1CCCCC1
-18%	Cn1cc(CN2CCC(C(=O)Nc3ccc(Oc4ccccc4F)cc3)CC2)cn1
-10%	CCOC(=O)C1(Cc2ccccc2C(F)(F)F)CCN(C2CCN(C(C)=O)CC2)CC1

Source: PubChem (National Center for Advancing Translational Sciences (NCATS))
